# STAT3 binder = STAT3 (human) binding; P40763; Small molecule microarray, His-STAT3 binding, anti-His fluorescence; calls only; 17,000 tested, 0.2% active;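 active means compounds whose four printed spots each show fluorescence over background unusually high for their array block, chance value under 7%; compounds were printed on slides so no solution concentration is given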;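 further: about 2 pmol printed per array spot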
# Myc binder = binds human c-Myc on microarray | P01106 | small molecule microarray, His-c-Myc binding, anti-His fluorescence | calls only | 17,000 tested, 1.5% active;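 active means spot fluorescence over background with P-value below 7% in all four replicate spots, showing protein binding; compounds were printed on slides so no solution concentration is given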;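 further: score is binary with 100 for all four spots passing and 0 otherwise; about 2 pmol printed per array spot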
# Target sequence (P01106 whole entry, looked up): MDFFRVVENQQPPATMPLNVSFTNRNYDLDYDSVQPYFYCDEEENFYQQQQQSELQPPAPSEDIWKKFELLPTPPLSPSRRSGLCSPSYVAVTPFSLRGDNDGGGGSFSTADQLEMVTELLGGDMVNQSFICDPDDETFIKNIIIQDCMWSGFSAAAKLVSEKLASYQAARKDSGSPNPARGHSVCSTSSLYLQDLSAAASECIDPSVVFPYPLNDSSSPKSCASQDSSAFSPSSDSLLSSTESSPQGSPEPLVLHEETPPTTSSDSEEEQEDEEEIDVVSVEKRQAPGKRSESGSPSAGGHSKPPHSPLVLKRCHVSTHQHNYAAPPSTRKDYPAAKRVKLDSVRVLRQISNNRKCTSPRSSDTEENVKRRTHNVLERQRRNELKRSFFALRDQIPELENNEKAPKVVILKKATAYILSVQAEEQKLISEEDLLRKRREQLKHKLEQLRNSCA
# ID4 binder = binders of human ID4 protein; small molecule microarray, Flag-ID4 binding, fluorescence F/B; calls only; 31,000 tested, 1.2% active; AID 624137;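 active means spot signal over background at p below 0.07 in all four prints; compounds were printed on slides so no solution concentration is given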;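 further: a binder raises fluorescence above local background on the spot; about 2 pmol printed per array spot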
# Target sequence (P47928 whole entry, looked up): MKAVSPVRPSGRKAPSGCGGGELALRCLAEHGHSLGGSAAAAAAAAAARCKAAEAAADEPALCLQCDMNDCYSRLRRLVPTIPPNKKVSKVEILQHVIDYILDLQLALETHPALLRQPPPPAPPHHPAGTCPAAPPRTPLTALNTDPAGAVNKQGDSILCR
# mut p53 SMM = binds human mutant p53 on microarray. small molecule microarray binding, anti-GST fluorescence. AID 624136. 17,000 tested, 0.4% active. calls only;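 active means compounds whose four printed spots each glow above background more than chance allows, each with a p-value under 7%; compounds were printed on slides so no solution concentration is given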;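 further: about 2 pmol printed per array spot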
# Calls only; i = inactive; . = no result given; + = active, no number.
no.	molecule	STAT3 binder	Myc binder	ID4 binder	mut p53 SMM
1	C[C@@H]1CCCCO[C@H](CN(C)C(=O)c2ccncc2)[C@@H](C)CN([C@@H](C)CO)C(=O)c2cc(NC(=O)Cc3ccccc3)ccc2O1	i	i	i	i
2	COc1ccc(CN(C)C[C@@H]2Oc3c(NC(=O)Nc4ccc(OC)cc4)cccc3C(=O)N([C@@H](C)CO)C[C@@H]2C)cc1	i	i	i	i
3	C[C@@H]1CN([C@@H](C)CO)C(=O)Cc2cc(NC(=O)NC3CCCCC3)ccc2O[C@H]1CN(C)Cc1ccc(C(=O)O)cc1	i	i	i	i
4	C[C@@H]1CN([C@@H](C)CO)C(=O)c2cccc(NC(=O)c3cnccn3)c2O[C@@H]1CN(C)S(=O)(=O)c1cn(C)cn1	i	i	i	i
5	C[C@@H]1CN([C@@H](C)CO)C(=O)Cc2cc(NC(=O)Nc3ccc4c(c3)OCO4)ccc2O[C@H]1CN(C)Cc1ccc2c(c1)OCO2	i	i	.	i
6	C[C@H](CO)N1C[C@H](C)[C@@H](CN(C)CC2CC2)Oc2ccc(NC(=O)Nc3ccc(C(F)(F)F)cc3)cc2CC1=O	i	i	i	i
7	CC(C)NC(=O)N(C)C[C@@H]1OCCCC[C@H](C)Oc2ccc(NS(=O)(=O)c3cccs3)cc2C(=O)N([C@@H](C)CO)C[C@@H]1C	i	i	i	i
8	CC(=O)n1cc([C@H]2C=C(C(=O)N3CCCCCCC3)O[C@@H](OCCCCO)C2)c2ccccc21	i	i	i	i
9	C[C@@H]1CN([C@@H](C)CO)C(=O)Cc2cc(NC(=O)Cc3cn(C)c4ccccc34)ccc2O[C@H]1CN(C)C(=O)Nc1ccccc1	i	i	i	i
10	[N-]=[N+]=NCc1ccccc1C[C@@]1(C(=O)NCc2ccccc2)N=C(c2ccc(OCCCO)cc2)O[C@@H]1c1ccccc1	i	i	i	i
11	C[C@@H]1CCCCO[C@@H](CN(C)Cc2ccncc2)[C@H](C)CN([C@@H](C)CO)C(=O)c2cc(NS(C)(=O)=O)ccc2O1	i	i	i	i
12	COc1ccc(C(=O)Nc2ccc(CN3C(=O)[C@]4(O[C@H](CC(=O)N5Cc6ccccc6C[C@H]5CO)[C@@H]([Si](C)(C)c5ccc(OC)cc5)[C@@H]4C)c4ccccc43)cc2)cc1	i	i	.	i
13	C[C@H]1CN([C@@H](C)CO)C(=O)c2cc(NC(=O)Nc3cccc4ccccc34)ccc2O[C@H]1CN(C)C	i	i	i	i
14	Cc1noc(C)c1NC(=O)Nc1cccc2c1O[C@@H](CN(C)Cc1ccccc1)[C@@H](C)CN([C@@H](C)CO)C2=O	i	i	.	i
15	C[C@@H]1C=C(C(=O)N2CCN(Cc3ccccc3)CC2)O[C@H](OCc2ccc(CO)cc2)C1	i	i	i	i
16	COc1ccc(S(=O)(=O)N(C)C[C@H]2Oc3c(NC(=O)Nc4cccc5ccccc45)cccc3C(=O)N([C@H](C)CO)C[C@@H]2C)cc1	i	i	i	i
17	O=C(O)c1ccc(S(=O)(=O)Nc2ccc(O)c(Sc3nc4ccccc4s3)c2)cc1	i	i	i	i
18	OC(COc1ccc(Cl)cc1)CSc1ccccn1 (configuration not stated)	i	i	i	i
19	COc1ccc(CN(C)C[C@@H]2Oc3ccc(NC(=O)c4ccncc4)cc3CC(=O)N([C@H](C)CO)C[C@H]2C)cc1	i	i	i	i
20	COc1ccc(S(=O)(=O)N(C)C[C@H]2Oc3ccc(NC(=O)Cc4cn(C)c5ccccc45)cc3CC(=O)N([C@H](C)CO)C[C@H]2C)cc1	i	i	i	i
21	CC(C)(CCO[C@@H]1O[C@H](CO[C@@H]2OC[C@@H](O)[C@H](O)[C@H]2O)[C@@H](O)[C@H](O)[C@H]1O)C[C@@H]1C(C(=O)O)=CC[C@]2(C(=O)O)C1=CCC1[C@@]3(C)CC[C@H](O[C@@H]4O[C@H](CO[C@@H]5O[C@H](CO)[C@@H](O)[C@H](O)[C@H]5O)[C@@H](O)[C@H](O)[C@H]4O)C(C)(C)C3CC[C@]12C (some centres not stated)	i	i	.	i
22	C[C@H](CO)N1C[C@H](C)[C@H](CN(C)Cc2ccncc2)Oc2c(NS(C)(=O)=O)cccc2C1=O	i	i	i	i
23	C[C@H](CO)N1C[C@H](C)[C@H](CN(C)Cc2ccc(Cl)c(Cl)c2)Oc2ccc(N(C)C)cc2CC1=O	i	i	i	i
24	C[C@@H]1CN([C@@H](C)CO)C(=O)c2cccc(NC(=O)c3ccc(-c4nccs4)cc3)c2O[C@H]1CN(C)C(=O)Nc1ccc(F)cc1	i	i	i	i
25	Cc1ccc(Cn2nc(C)c(NC(=O)c3nc4ncccn4n3)c2C)cc1	i	i	i	i
26	COCCCNC(=O)[C@]1(Cc2ccccc2N=[N+]=[N-])N=C(c2ccc(OCCCO)cc2)O[C@@H]1c1ccccc1	i	i	i	i
27	C=CC1c2cc(O)c(OC)cc2CCN1Cc1cccc(OC(F)(F)F)c1 (configuration not stated)	i	i	i	i
28	C[C@H]1CCCCO[C@H](CN(C)S(=O)(=O)c2ccc(Cl)cc2)[C@@H](C)CN([C@@H](C)CO)C(=O)c2cc(NC(=O)Nc3cccc4ccccc34)ccc2O1	i	i	.	i
29	C[C@H](CO)N1C[C@H](C)[C@@H](CN(C)C(=O)Nc2ccccc2)OCCCC[C@H](C)Oc2ccc(NC(=O)CCCN(C)C)cc2C1=O	i	i	i	i
30	C[C@H](CO)N1C[C@H](C)[C@@H](CN(C)C(=O)Nc2ccc(F)cc2)Oc2c(NC(=O)Nc3ccc(C(F)(F)F)cc3)cccc2C1=O	i	i	i	i

# (further entries)
no.	molecule	STAT3 binder	Myc binder	ID4 binder	mut p53 SMM
31	COc1ccc(NC(=O)CNC(=O)c2ccccc2)cc1Cl	i	i	i	i
32	C[C@H](CO)N1C[C@H](C)[C@H](CN(C)C(=O)NC2CCCCC2)Oc2ccc(NC(=O)Nc3ccc(C(F)(F)F)cc3)cc2C1=O	i	i	i	i
33	C[C@H](CO)N1C[C@H](C)[C@H](CN(C)C(=O)CCC(F)(F)F)OCCCC[C@H](C)Oc2ccc(NC(=O)CCC(F)(F)F)cc2C1=O	i	+	i	i
34	Cc1noc(C)c1NC(=O)N(C)C[C@@H]1OCCCC[C@@H](C)Oc2ccc(NS(=O)(=O)c3ccc(Cl)cc3)cc2C(=O)N([C@@H](C)CO)C[C@H]1C	i	i	.	i
35	C[C@H](CO)N1C[C@H](C)[C@@H](CN(C)Cc2ccncc2)Oc2c(NC(=O)c3cnccn3)cccc2C1=O	i	i	.	i
36	CCOC(=O)c1c(NC(=O)CSc2nnc(C)s2)sc2c1CCCCC2	i	i	i	i
37	CS(=O)(=O)N(CC(=O)Nc1ccc(Br)cc1F)c1ccccc1Cl	i	i	i	i
38	C/C(=C\CC[C@@H](C)[C@H]1CC(O)[C@@]2(C)C3CC[C@H]4C(C)(C)[C@@H](O[C@@H]5OC(COC6OC(CO)C(O)C(O)C6O)C(O)C(O)C5O)CC[C@@]45C[C@@]35CC(O)[C@]12C)C(=O)OC1OC(CO)C(O)C1O (some centres not stated)	i	i	.	i
39	O=C(Nc1ccccc1)C1=C[C@H](c2ccc(C(F)(F)F)cc2)C[C@H](OCc2ccc(CO)cc2)O1	i	i	i	i
40	COc1ccc(CN(C)C[C@H]2Oc3ccc(NC(=O)Nc4ccc(F)cc4)cc3C(=O)N([C@@H](C)CO)C[C@@H]2C)cc1	i	i	i	i
41	COc1ccc(C(=O)Nc2ccccc2C(=O)NC(C(=O)O)C(C)C)cc1 (configuration not stated)	i	+	i	i
42	COc1ccc(S(=O)(=O)N(C)C[C@@H]2Oc3ccc(NS(=O)(=O)c4cn(C)cn4)cc3CC(=O)N([C@H](C)CO)C[C@@H]2C)cc1	i	i	i	i
43	C[C@@H]1CN([C@@H](C)CO)C(=O)Cc2cc(NC(=O)Cc3ccccc3)ccc2O[C@@H]1CN(C)C	i	i	i	i
44	CCC(C)C(=O)OCC1(c2ccc(C)cc2OC(=O)C(C)C)CO1 (configuration not stated)	i	i	i	i
45	C[C@@H]1CN([C@H](C)CO)C(=O)c2cccc(NS(C)(=O)=O)c2O[C@H]1CN(C)Cc1ccc2c(c1)OCO2	i	i	i	i
46	CC(C)NC(=O)N(C)C[C@H]1OCCCC[C@H](C)Oc2ccc(NS(=O)(=O)c3cn(C)cn3)cc2C(=O)N([C@@H](C)CO)C[C@H]1C	i	i	i	i
47	C[C@H]1CN([C@@H](C)CO)C(=O)c2cc(NC(=O)NC3CCCCC3)ccc2O[C@@H]1CN(C)C	i	i	i	i
48	C[C@H]1CN([C@@H](C)CO)C(=O)Cc2cc(NC(=O)Cc3ccccc3)ccc2O[C@@H]1CN(C)C(=O)Nc1ccc2c(c1)OCO2	i	i	i	i
49	C[C@@H]1CN([C@@H](C)CO)C(=O)Cc2cc(NC(=O)Nc3cccc4ccccc34)ccc2O[C@H]1CN(C)C(=O)Nc1cccc2ccccc12	i	i	i	i
50	C[C@H]1CN([C@@H](C)CO)C(=O)c2cccc(NS(=O)(=O)c3ccc(Cl)cc3)c2O[C@@H]1CN(C)C	i	i	i	i
51	C[C@@H]1CN([C@@H](C)CO)C(=O)CCCn2cc(nn2)CO[C@@H]1CN(C)Cc1cccc2c1OCCCO2	i	i	i	i
52	CC(C)OC(=O)CSc1nc2c(c(-c3ccccc3)c1C#N)CCC2	i	i	i	i
53	CNC[C@H]1Oc2ccc(NS(=O)(=O)c3cn(C)cn3)cc2CC(=O)N([C@@H](C)CO)C[C@H]1C	i	i	i	i
54	Cc1noc(C)c1NC(=O)N(C)C[C@@H]1Oc2ccc(NC(=O)Cn3cnnn3)cc2C(=O)N([C@H](C)CO)C[C@@H]1C	i	i	i	i
55	NC(=O)C1=C[C@H](c2ccc3c(c2)OCO3)C[C@H](OCc2ccc(CO)cc2)O1	i	i	i	i
56	COc1ccc(NC(=O)Nc2cccc3c2O[C@@H](CN(C)S(=O)(=O)c2cccs2)[C@@H](C)CN([C@H](C)CO)C3=O)cc1	i	i	i	i
57	C[C@@H]1CCCCO[C@H](CN(C)C(=O)Nc2ccccc2)[C@@H](C)CN([C@H](C)CO)C(=O)c2cc(NC(=O)Cc3ccccc3)ccc2O1	i	i	i	i
58	C[C@@H]1CCCCO[C@H](CN(C)C(=O)Nc2ccccc2)[C@H](C)CN([C@@H](C)CO)C(=O)c2cc(NC(=O)Nc3ccccc3)ccc2O1	i	i	i	i
59	O=C(COc1ccccc1Cl)Nc1ccccc1C(=O)Nc1ccccc1	i	i	i	i
60	COc1ccc(NC(=O)N(C)C[C@H]2OCCCC[C@H](C)Oc3ccc(NC(=O)NC(C)C)cc3C(=O)N([C@H](C)CO)C[C@@H]2C)cc1	i	i	.	i

# Carrying on:
no.	molecule	STAT3 binder	Myc binder	ID4 binder	mut p53 SMM
61	C[C@H]1CN([C@@H](C)CO)C(=O)CCCn2cc(nn2)CO[C@@H]1CN(C)Cc1ccc(O)cc1	i	i	i	i
62	COc1ccc(S(=O)(=O)Nc2cccc3c2O[C@@H](CN(C)Cc2ccc(C(=O)O)cc2)[C@H](C)CN([C@@H](C)CO)C3=O)cc1	i	i	i	i
63	Cc1cc(Cl)ccc1NC(=O)COc1ccc(C(=O)Nc2cc(Cl)ccc2Cl)cc1	i	i	i	i
64	C[C@@H]1CCCCO[C@@H](CN(C)Cc2ccccc2)[C@H](C)CN([C@H](C)CO)C(=O)c2cc(NC(=O)CCC(F)(F)F)ccc2O1	i	i	i	i
65	C[C@@H]1CN([C@@H](C)CO)C(=O)c2cc(NC(=O)CCC(F)(F)F)ccc2O[C@H]1CN(C)C(=O)Nc1ccc2c(c1)OCO2	i	i	i	i
66	C[C@H]1CN([C@@H](C)CO)C(=O)Cc2cc(NC(=O)Cc3ccccc3)ccc2O[C@@H]1CN(C)Cc1ccc(C(F)(F)F)cc1	i	i	i	i
67	COc1cc([N+](=O)[O-])ccc1NC(=O)NCc1cccnc1	i	i	i	i
68	C[C@@H]1CN([C@H](C)CO)C(=O)c2cc(NC(=O)CCCN(C)C)ccc2O[C@@H](C)CCCCO[C@H]1CN(C)Cc1ccc2c(c1)OCO2	i	i	i	i
69	C=C(C)C(O)Cc1c(OC)cc2oc(=O)ccc2c1OC (configuration not stated)	i	i	.	i
70	C[C@H](CO)N1C[C@H](C)[C@H](CN(C)C(=O)c2ccncc2)OCCCC[C@H](C)Oc2ccc(N(C)C)cc2C1=O	i	i	i	i
71	CC(=O)Nc1ccc(Nc2ncnc3c2cnn3-c2ccc(C)cc2C)cc1	i	i	i	i
72	C[C@H](CO)N1C[C@H](C)[C@H](CN(C)C(=O)Nc2ccccc2)Oc2ccc(NC(=O)C3CC3)cc2CC1=O	i	i	i	i

# Screening results (PubChem)

# The list is partial, so the mix of outcomes need not match the whole.
